Source: PubChem
Mtb MenB inh: inhibitors of Mycobacterium tuberculosis MenB enzyme; actives 0.43% (n = 100,000); inhibition, %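 (about 12 µg/mL by stock and volumes)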; MenB enzyme assay, absorbance read-out; some hits fall short of the stated cut; P9WNP5;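 active = mean of two replicates above 30%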;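 note: 0% = no compound and 100% = wells with inactive enzyme; the first replicate is given; strong numbers were not always called active; inactives centre near -10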
Target sequence (P9WNP5 whole entry, looked up): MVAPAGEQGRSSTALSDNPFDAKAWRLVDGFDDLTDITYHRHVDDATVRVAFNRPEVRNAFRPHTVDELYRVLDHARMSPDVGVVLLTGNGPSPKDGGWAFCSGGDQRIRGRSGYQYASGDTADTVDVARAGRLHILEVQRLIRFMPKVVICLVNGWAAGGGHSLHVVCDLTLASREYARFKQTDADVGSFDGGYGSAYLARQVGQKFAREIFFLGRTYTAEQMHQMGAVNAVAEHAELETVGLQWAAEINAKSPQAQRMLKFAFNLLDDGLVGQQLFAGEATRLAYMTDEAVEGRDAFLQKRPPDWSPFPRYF
MbtI inh: blocks the Mycobacterium tuberculosis siderophore enzyme MbtI. actives 0.89% (n = 100,000). inhibition, %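 (about 17 µg/mL by stock and volumes)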. purified MbtI enzyme, fluorescence intensity read-out. P9WFX0;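 active = above 50% in both replicates, above 80% if mildly self-fluorescent; inactive = the rest, strongly fluorescent compounds included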;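 note: 0% = mean of negative and 100% = mean of positive controls; one replicate is shown; some compounds called inactive have numbers as strong as hits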
Polio RdRp inh: inhibitors of poliovirus RNA polymerase binding and polymerization; poliovirus polymerase elongation, fluorescence polarization; hits give low values; % elongation, % (compound at 16.7 µg/mL); actives 0.66% (n = 150,000); AID 588519; in the data active = % elongation below about 90%; note: some results filed as inactive read as strong as hits
Target sequence (P03300 1749-2209 limits assumed): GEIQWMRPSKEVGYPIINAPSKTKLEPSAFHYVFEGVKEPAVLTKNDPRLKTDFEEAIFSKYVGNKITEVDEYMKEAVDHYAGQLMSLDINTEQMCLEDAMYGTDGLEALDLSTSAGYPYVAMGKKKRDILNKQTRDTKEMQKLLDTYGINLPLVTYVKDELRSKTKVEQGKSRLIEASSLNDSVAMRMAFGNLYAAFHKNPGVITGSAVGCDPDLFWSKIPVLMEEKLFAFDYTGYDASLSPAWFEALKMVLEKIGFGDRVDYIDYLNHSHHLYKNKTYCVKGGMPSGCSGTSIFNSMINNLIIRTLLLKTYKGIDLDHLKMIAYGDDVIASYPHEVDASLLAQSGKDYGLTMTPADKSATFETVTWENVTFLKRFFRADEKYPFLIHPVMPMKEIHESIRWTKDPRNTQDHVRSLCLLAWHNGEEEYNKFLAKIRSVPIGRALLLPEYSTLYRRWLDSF
Polio RdRp inh intensity: further read-out of Polio RdRp inh, marked with its call; % elongation; measured here: total intensity read-out; formula for this scale not given here;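 total fluorescence in place of polarization; lower means less elongation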
The depositor's hits bear a star; / = no result given; & = joins results of further samples.

A first look (5 entries):
SMILES	Mtb MenB inh	MbtI inh	Polio RdRp inh	Polio RdRp inh intensity
O=C(NCc1ccco1)C1CC(c2ccc(Cl)cc2)=NO1 (configuration not stated)	-19	-5	99	102
Cc1ccc(NC(=O)CSC2=NC(=O)CC(=O)N2)cc1	-86	-10	100	100
Cn1c(SCc2ccccc2Cl)nc2ccccc21	-3	0	100	102
COc1ccc(-c2nc(CNS(=O)(=O)c3ccccc3F)cs2)cc1	-24	2	106	108
O=C(C1CCN(S(=O)(=O)c2cccc3nsnc23)CC1)N1CCCCC1	-17	-4	106	111

The whole of this part, from the first entry:
SMILES	Mtb MenB inh	MbtI inh	Polio RdRp inh	Polio RdRp inh intensity
O=C(NCc1ccco1)C1CC(c2ccc(Cl)cc2)=NO1 (configuration not stated)	-19	-5	99	102
Cc1ccc(NC(=O)CSC2=NC(=O)CC(=O)N2)cc1	-86	-10	100	100
Cn1c(SCc2ccccc2Cl)nc2ccccc21	-3	0	100	102
COc1ccc(-c2nc(CNS(=O)(=O)c3ccccc3F)cs2)cc1	-24	2	106	108
O=C(C1CCN(S(=O)(=O)c2cccc3nsnc23)CC1)N1CCCCC1	-17	-4	106	111
Clc1cccc(Cl)c1CSc1cccs1	4	-17	109	116
O=C(c1ccccc1)N1CCNCC1	-3	-3	98	99
Cn1nnnc1SCC(=O)Nc1nccs1	-4	/	109	114
O=C(CCNS(=O)(=O)c1ccc2c(c1)OCCO2)Nc1nccs1	-8	-7	/	/
COCC(=O)OCc1cc(=O)oc2cc(O)ccc12	-14	75	102	106
Cc1ccnc(SCc2cccc(C(=O)O)c2)n1	-54	48	102	104
COc1ccc2nc(Nc3nnc(-c4ccccc4)o3)sc2c1	-22	3	100	105
CNC(=S)NNS(=O)(=O)c1ccc2ccccc2c1	3	-4	99	102
CC(OC(=O)C1COc2ccccc2O1)C(=O)N(C)c1ccccc1 (configuration not stated)	-13	6	/	/
CCCCNC(=O)n1c(=S)oc2cc(Cl)ccc21	-16	43	100	104
C/C(=C(\CCOP(=O)(O)O)SC(=O)c1ccccc1)N(C=O)Cc1cnc(C)nc1N	2	-8	100	101
NC(=O)CN1C(=O)S/C(=C\C=C\c2ccccc2)C1=O	-48	-11	103	100
O=C(N=Nc1c(O)n(CN(Cc2ccccc2)Cc2ccccc2)c2ccccc12)c1ccco1	6	-3	99	98
CC1=CCC2CC1C(C)OC2(C)C (configuration not stated)	-21	-3	105	103
O=C(O)CSCC(=O)N1CCCc2ccccc21	/	-4	104	104
CCCNC(=O)C1Sc2nnc(-c3ccccc3)n2NC1c1ccccc1 (configuration not stated)	4	7	101	105
CNC(=O)COC(=O)c1ccc(C#N)cc1	-9	10	104	105
O=C(O)c1cccc(COCC(F)(F)F)c1	2	-3	100	104
O=C(CCNS(=O)(=O)c1ccc2[nH]c(=O)ccc2c1)NC1CCCC1	-26	-3	101	95
CC(=O)Nc1ccc(NC(=O)Cn2c(=O)cc(C)c3c(C)nn(-c4cccc(F)c4)c32)cc1	-30	-18	100	102
COc1cc(-c2cc(C(F)(F)F)n3ncc(C(=O)O)c3n2)cc(OC)c1OC	-11	-4	102	102
Cc1sc2c(c1C)C(=O)NC(/C=C/c1ccc3c(c1)OCO3)N2 (configuration not stated)	-48	/	106	114
CN(C)c1nc(N)nc(Cn2c(=O)oc3ccc(Cl)cc32)n1	-32	-5	103	103
COc1cc(OC)c(C(=O)CCC(=O)O)cc1OC	-20	/	104	106
c1ccc(-c2nnc(CN3CCCCCC3)o2)cc1	-6	-11	103	94
O=C1/C(=C/C=C/c2ccccc2)SC(=S)N1c1cccc(F)c1	-18	/	100	118
Cc1cccc(N2CCN(CC(O)CN3C(=O)c4ccccc4C3=O)CC2)c1 (configuration not stated)	-24	/	103	118
CC1Cc2ccccc2N1C(=O)COc1cccc(C#N)c1 (configuration not stated)	-30	8	100	99
O=C1COc2ccc(C(=O)COC(=O)c3cccnc3)cc2N1	-4	-1	108	118
COc1ccc(-c2ccc[nH]2)cc1	-49	115	107	123
CCOc1ncccc1C(=O)N1CCCC1c1nc2ccccc2s1 (configuration not stated)	-3	1	100	106
CCOC(=O)c1cc2oc(C)cc2n1CCCN1C(=O)c2ccccc2C1=O	-48	-3	105	100
O=c1[nH]c(=S)n(-c2ccccc2)c(O)c1C=Nc1ccc(N2CCOCC2)c(Br)c1	-4	/	103	98
N#CCc1nc(-c2cccc(Cl)c2)n[nH]1	12	74*	101	105
O=C(Cn1c(=O)n(CC2CCC(C(=O)NCc3ccccc3)CC2)c(=O)c2ccccc21)NCc1ccco1 (configuration not stated)	15	-1	99	100

22 consecutive entries out of the list so far, quoted:
SMILES	Mtb MenB inh	MbtI inh	Polio RdRp inh	Polio RdRp inh intensity
CC1=CCC2CC1C(C)OC2(C)C (configuration not stated)	-21	-3	105	103
O=C(O)CSCC(=O)N1CCCc2ccccc21	/	-4	104	104
CCCNC(=O)C1Sc2nnc(-c3ccccc3)n2NC1c1ccccc1 (configuration not stated)	4	7	101	105
CNC(=O)COC(=O)c1ccc(C#N)cc1	-9	10	104	105
O=C(O)c1cccc(COCC(F)(F)F)c1	2	-3	100	104
O=C(CCNS(=O)(=O)c1ccc2[nH]c(=O)ccc2c1)NC1CCCC1	-26	-3	101	95
CC(=O)Nc1ccc(NC(=O)Cn2c(=O)cc(C)c3c(C)nn(-c4cccc(F)c4)c32)cc1	-30	-18	100	102
COc1cc(-c2cc(C(F)(F)F)n3ncc(C(=O)O)c3n2)cc(OC)c1OC	-11	-4	102	102
Cc1sc2c(c1C)C(=O)NC(/C=C/c1ccc3c(c1)OCO3)N2 (configuration not stated)	-48	/	106	114
CN(C)c1nc(N)nc(Cn2c(=O)oc3ccc(Cl)cc32)n1	-32	-5	103	103
COc1cc(OC)c(C(=O)CCC(=O)O)cc1OC	-20	/	104	106
c1ccc(-c2nnc(CN3CCCCCC3)o2)cc1	-6	-11	103	94
O=C1/C(=C/C=C/c2ccccc2)SC(=S)N1c1cccc(F)c1	-18	/	100	118
Cc1cccc(N2CCN(CC(O)CN3C(=O)c4ccccc4C3=O)CC2)c1 (configuration not stated)	-24	/	103	118
CC1Cc2ccccc2N1C(=O)COc1cccc(C#N)c1 (configuration not stated)	-30	8	100	99
O=C1COc2ccc(C(=O)COC(=O)c3cccnc3)cc2N1	-4	-1	108	118
COc1ccc(-c2ccc[nH]2)cc1	-49	115	107	123
CCOc1ncccc1C(=O)N1CCCC1c1nc2ccccc2s1 (configuration not stated)	-3	1	100	106
CCOC(=O)c1cc2oc(C)cc2n1CCCN1C(=O)c2ccccc2C1=O	-48	-3	105	100
O=c1[nH]c(=S)n(-c2ccccc2)c(O)c1C=Nc1ccc(N2CCOCC2)c(Br)c1	-4	/	103	98
N#CCc1nc(-c2cccc(Cl)c2)n[nH]1	12	74*	101	105
O=C(Cn1c(=O)n(CC2CCC(C(=O)NCc3ccccc3)CC2)c(=O)c2ccccc21)NCc1ccco1 (configuration not stated)	15	-1	99	100

Next part.
SMILES	Mtb MenB inh	MbtI inh	Polio RdRp inh	Polio RdRp inh intensity
CC(NCc1ccc2c(c1)OCO2)C(=O)N1CCc2ccccc21 (configuration not stated)	-27	-10	101	103
Cn1cc(C(=O)NC2CCCCCC2)c(=O)c2cc(S(=O)(=O)N3CCCCCC3)ccc21	2	4	102	104
O=C(CSc1ccc2nnc(-c3cccnc3)n2n1)NCc1ccccc1	-3	29	105	103
N#Cc1c2n(c(=O)[nH]c1=O)CCC2	-14	-13	103	110
COc1cccc(CN(C)S(=O)(=O)c2ccc3c(c2)OCCO3)c1	-16	-3	/	/
N#CC(C#N)=C(N)/C(C#N)=C\c1ccc(-c2ccccc2)o1	-189	6	101	113
CCOC(=O)c1c(N)sc2c1CC(C)(C)OC2	-78	65	/	/
CC(c1ccccc1)C1NC(C(=O)O)CS1 (configuration not stated)	-19	/	104	106
O=C(CC1(O)C(=O)N(Cc2ccccc2Cl)c2ccccc21)c1ccccn1 (configuration not stated)	-3	-2	105	103
CCN=c1scc(-c2ccccc2)n1/N=C/c1ccccn1	-241	2	102	103
CCCCC[C@@H](/C=C/C=C\CCCCCCCC(=O)O)OO	6	-13	99&99	104&102
CC(C)CN(CC(C)C)S(=O)(=O)N1CCC(C(=O)NC2CC2)CC1	-11	-23	101	102
O=C(CN1CCN(Cc2ccccc2)CC1)N1CCOCC1	-8	5	102	101
Cc1cccc(C(=O)NCCCN2CCCC2=O)c1	-6	-7	107	105
CCCNC(=O)c1ccc(CS(=O)(=O)c2ccc(OC)cc2)o1	1	-8	104	104
CCc1ccc(CCC(=O)Nc2sc3c(c2C(=O)OC)CCCC3)o1	-32	18	98	104
COc1c2c(nc3occc13)C(CC=C(C)C)(OC)C(=O)C=C2 (configuration not stated)	-11	/	106	107
COC(=O)c1cnc2sc3ccccc3n2c1=O	-13	12	100	99
COC(=O)Cc1ccccn1	-43	1	104	106
Cc1ccccc1NS(=O)(=O)c1ccc2[nH]cc(C(=O)N(C)Cc3ccccc3)c(=O)c2c1	-3	-56	102	104
Cc1ccc(Cl)cc1N1CCN(CCNS(=O)(=O)c2ccc3c(c2)C(C)(C)C(=O)N3C)CC1	-19	-20	103	101
CN(c1ccccc1C(=O)N1CCN(c2cccc(Cl)c2)CC1)S(C)(=O)=O	-16	0	99	100
COC(=O)c1nn(-c2ccc(Br)cc2C)c(Br)c1C(=O)OC	-20	/	105	104
COc1cccc([C@@H]2[C@@H](c3ccc(OC)c(F)c3)N3C=Cc4ccccc4[C@@H]3C2(C#N)C#N)c1	-12	/	107	128
Cc1ccc(-c2cn3c(n2)sc2cc(C(=O)N4CCC5(CC4)OCCO5)ccc23)cc1	-15	-48	104	104
COc1ccccc1-c1[nH]ncc1CNCc1ccccc1C	-27	-14	101	107
Cc1nn(-c2ccccc2)c(-c2ccccc2)c1C(=O)O	33	-30	101	99
CC(OC(=O)c1ccc2ncsc2c1)C(=O)Nc1ccc(S(N)(=O)=O)cc1 (configuration not stated)	4	-37	104	106
CCN(CC)c1ccc(Nc2cc(C)c(C#N)c3nc4ccccc4n23)cc1	4	/	106	102
Cc1ccc(C(=O)NC2CC3CCCC(C2)N3C(=O)NC2CCCCC2)cc1 (configuration not stated)	-39	0	102	103
COC(=O)c1ccc(CNCC(=O)Nc2ccc(C(=O)OC)cc2)cc1	-7	-15	102	109
CCC(C)Sc1nc2c([nH]c3ccccc32)c(=O)n1-c1ccccc1 (configuration not stated)	-8	4	99	104
O=C(Cn1cnc2ccccc2c1=O)OC1CCCCC1	-13	/	106	109
COC(=O)Cc1nc(NC(=O)C2CCC2C(=O)O)sc1C (configuration not stated)	-15	-12	108	107
CC12CCC3C4CCC(=O)C=C4CCC3C1CCC2O (configuration not stated)	3	-4	102	104
Cc1cc(C)c(C#N)c(SCSc2ccccc2)n1	-10	/	104	109
O=C(Nc1ncnc2sccc12)C1CCCCC1	-1	9	103	100
Cc1cccc(C(=O)N/N=C/c2ccc[nH]2)c1	12	42	102	101
Cc1ccc(S(=O)(=O)N2CC(=O)c3ccccc3-c3ccccc32)cc1	-17	/	108	108
c1ccc(-n2cnc3cc(NCc4ccco4)ccc32)cc1	7	-229	101	105
O=C(Cc1ccc(-c2ccccc2)cc1)OCC(=O)N1CCCCC1	/	-7	100	107
Cc1nc2cccc(C(=O)N3CCN(c4ccccc4)CC3)c2o1	-20	/	103	105
O=c1c2c3c(sc2nc(SCc2ccccc2)n1Cc1ccco1)CCC3	-33	39	101	101
NCCc1cc(O)c(O)cc1O	6	8	95	103
CSc1nnc(-c2ccc(C(C)(C)C)cc2)n1Cc1ccco1	-23	-2	104	107
N#Cc1sc2nccc(Nc3ccccc3)c2c1N	-49	-18	100	101
FC(F)(F)c1cccc(N2CCN(C3=Cc4ccccc4C3)CC2)c1	-19	-4	102	99
N#Cc1ccc(C(=O)CSc2cccc[n+]2[O-])cc1	10	21	100	107
CCCCN1C(=O)c2ccc(C(=O)O)cc2C1=O	-7	4	107	106
CC(=O)Nc1ccc(-c2nc3ccccc3c(=O)o2)cc1	-8	/	105	105
(next part)
SMILES	Mtb MenB inh	MbtI inh	Polio RdRp inh	Polio RdRp inh intensity
CCSC1=N/C(=C\c2ccccc2)C(=O)N1c1ccc(C)c(Cl)c1	-27	-10	98	99
NC(=O)CN(Cc1ccccc1)S(=O)(=O)c1ccc(F)cc1	6	-6	98	101
O=c1oc2ccccc2cc1-c1nnnn1-c1ccc(F)cc1	-3	181	105	103
COC(=O)CC(=O)CSc1nc(C)cc(C(F)(F)F)c1C#N	-22	3	102	104

Outcome played no part in choosing rows; any-hit rate near 1.7%.
